gsp antag = antagonizes gsp, the McCune-Albright syndrome mutation. gsp-mutant cells, cAMP HTRF, 30 min; control for the full effect not named in the record. Potency, µM (highest dose often 76.9 µM), for inactives: at the highest dose activity change, negative = inhibition, actives largely listed as inhibitors. 0.4% of 340,000 active; active = falling curve of any shape with a large fitted effect; inconclusive = falling curve, mostly with a smaller effect; inactive = flat or rising curve; cell line not stated here;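 further: intracellular cAMP measured with PDE inhibitor Ro 20-1724 present during compound exposure; potency means the concentration at half of the fitted maximal effect; on the % scale 0 is the no-effect control and ±100 the full control effect; nearly all actives have a fitted effect of over 65% in size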
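Cells in G418 medium, seeded 16-24 h, 37C; buffer exchange to DPBS + 1 mM CaCl2, 0.5 mM MgCl2, 0.05% BSA; cpds in DMSO + […] (300 uM stock), 30 min 37C; HTRF cAMP detection.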
gsp agonist = activates gsp, the McCune-Albright syndrome mutation; Potency, µM (top dose mostly 76.9 µM), without a hit: at the highest dose activation (cAMP increase), usual class: activators; gsp mutant cells, cAMP HTRF, 30 min; control for the full effect not named in the record; 0.13% of 340,000 active; active = well fitted activation curve with a large enough effect; inconclusive = small, poorly fitted or top-dose-only effect, or another doubt; inactive = no such curve, though single readings can be large or run the other way; cell line not stated here;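 further: phosphodiesterase inhibitor Ro 20-1724 added with compounds to block cAMP breakdown; potency means the concentration at half of the fitted maximal effect; nearly all actives have a fitted effect of over 60% in size; about a fifth of the inactives were tested at one dose only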
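Cells stably selected in G418 were plated at 2000/well, grown 16-24 hr, then given compounds in DMSO with the PDE inhibitor […] (300 uM solution added) for 30 min at 37C; cAMP was read by HTRF.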
Menin MLL FP FL = menin-MLL binding inhibition, fluorescein peptide; Fluorescence polarization, fluorescein-MLL peptide displacement from menin; FP activity change, % at 61.4 µM; 290,000 tested, under 10 active; AID 1766; inconclusive = falling polarisation curve, or a change in total fluorescence; inactive = total fluorescence flat and polarisation flat or rising; no compound was filed as active; the % refers to the polarisation; negative = inhibition;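 further: % of control where 0% means no effect; inhibitors lower the polarisation; unlabelled MLL peptide was the positive control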
TRPML1 agonist = activates the human TRPML1 channel | Q9GZU1 | TRPML1-expressing cells, Ca2+ dye fluorescence, FDSS; host cell line not named in the record; reference of the full effect not given here | activation, % (concentration not given with the values) | 0.12% of 410,000 active | AID 624414; in the data active = activation above about 50%; inconclusive = about 30% to 50%; inactive = below about 30%; further: 0% is about no effect; the text of the record puts the active cut at 80%
Target sequence (Q9GZU1 whole entry, looked up): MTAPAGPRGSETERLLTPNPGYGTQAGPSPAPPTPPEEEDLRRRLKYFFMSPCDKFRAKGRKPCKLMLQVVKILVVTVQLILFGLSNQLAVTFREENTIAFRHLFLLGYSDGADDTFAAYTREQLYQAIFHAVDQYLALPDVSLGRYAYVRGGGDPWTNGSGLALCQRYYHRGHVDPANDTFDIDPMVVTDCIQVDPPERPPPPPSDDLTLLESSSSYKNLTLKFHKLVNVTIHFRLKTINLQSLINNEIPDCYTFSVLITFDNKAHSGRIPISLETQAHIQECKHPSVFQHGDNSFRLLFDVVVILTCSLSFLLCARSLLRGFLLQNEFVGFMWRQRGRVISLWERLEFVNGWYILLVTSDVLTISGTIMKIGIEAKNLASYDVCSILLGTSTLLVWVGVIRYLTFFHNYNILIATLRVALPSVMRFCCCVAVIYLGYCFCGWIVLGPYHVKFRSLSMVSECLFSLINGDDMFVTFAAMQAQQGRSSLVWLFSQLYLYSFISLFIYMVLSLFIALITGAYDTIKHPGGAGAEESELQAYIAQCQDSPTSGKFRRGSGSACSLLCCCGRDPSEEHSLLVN
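Kinetic FDSS Ca2+ read in Tet-induced TRPML1-DL cells (ABD Ca8 dye plus quencher, 45-90 min RT loading): baseline, then compound, then 110 s agonist window; EC80 agonist 54-4 at 4uM final added afterwards for a 110 s antagonist window.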
TRPML1 blocker = inhibitors of human TRPML1 channel | 0.02% of 390,000 active | Q9GZU1 | activity change, negative = inhibition, % (no concentration beside the values) | AID 624415 | TRPML1-inducible cells, Ca2+ dye fluorescence, FDSS; hits give low values; inhibition of EC80 agonist-evoked calcium signal; in the data active means activity change below about -50%; inconclusive means about -30% to -50%; inactive means above about -30%;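 further: stimulus is agonist 54-4 at its EC80 concentration; on the % scale 0 is the no-effect control and ±100 the full control effect; compound concentration not given in the record; the text of the record puts the active cut at -80%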
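TRPML1-DL cells, Tet-induced overnight (~16 h, 37 °C) at 1,500 cells/well, were loaded with Ca8 no-wash dye plus quencher for 45-90 min at room temperature. Compounds were pinned during FDSS kinetic reading; agonist 54-4 at EC80 (4 uM final) then added.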
ClpP mod = qHTS Assay for Activators of ClpP; purified B. subtilis ClpP, FRET peptide cleavage, 20 min; Potency, µM (top dose mostly 57.5 µM), inactives show at the top dose activity change, negative = active; 1.9% of 340,000 active; AID 651965, 2013; active = well fitted falling curve with a large enough effect; inconclusive = small, poorly fitted or top-dose-only effect; inactive = no such curve, though single readings can be large or run the other way; further: potency means the concentration at half of the fitted maximal effect; the source files actives as falling curves though it sought activators and does not explain the sign; nearly all actives have a fitted effect of over 65% in size; many hits overshoot -100%
Target sequence (P80244 whole entry, looked up): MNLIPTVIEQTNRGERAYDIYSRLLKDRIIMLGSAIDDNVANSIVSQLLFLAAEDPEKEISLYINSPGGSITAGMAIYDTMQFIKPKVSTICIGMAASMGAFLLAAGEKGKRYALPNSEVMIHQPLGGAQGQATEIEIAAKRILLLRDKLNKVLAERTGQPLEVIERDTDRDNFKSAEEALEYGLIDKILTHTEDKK
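Buffer: 100 mM Tris/HCl pH8, 100 mM KCl, 0.05% low protease BSA, 2.5% glycerol, 0.01% Tween-20. ClpP 10 microg/mL final; 20 min RT; delta FRET normalized to ADEP and DMSO controls.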
Numbers without * were called inactive; ? = inconclusive; / = no result given; & = joins results of further samples; [ ] = dose if it differs, or a comment.

compound,gsp antag,gsp agonist,Menin MLL FP FL,TRPML1 agonist,TRPML1 blocker,ClpP mod
CCCN(CCC)S(=O)(=O)c1ccc(C(=O)N2CCOCC2)cc1,-10%,-14%,5.2,-0.4,1,0.3%
O=C(Nc1ncn[nH]1)C(F)(F)C(F)F,13%,18%,0.4,0.2,34,-6.7%
Cn1ncc(C#N)c1NC(=O)C1CC(c2c(F)cccc2Cl)=NO1 (configuration not stated),10%,-2%,2.0,-0.5,-25,-0.3%
Cc1ccc(OCC(=O)NNC(=O)C2CCN(c3ncccn3)CC2)cc1,8%,-14%,0.3,-0.4,3,-16%
Cc1ccc(C)c(C(=O)NCc2ccncc2)c1,-15%,1%,-1.9,-0.6,-5,0.3%
N#Cc1ccccc1Cn1c(=O)n(C2CCCC2)c(=O)c2ccccc21,?,-8%,2.3,2.8,5,-21%
Cc1cc(NC(=O)c2noc3c2CCCC3)n(-c2ccccc2)n1,-2%,8%,3.7,1.0,-10,-3.2%
COc1ccccc1N(C)S(=O)(=O)c1ccc(C(=O)N(C)Cc2ccc(Cl)s2)cc1,-15%,?,/,2.1,1,-3.6%
CC(C)CNC(=O)c1cccc(NC(=O)c2ccc3c(c2)C(=O)N(C)C3=O)c1,-7%,-1%,0.2,-0.7,-1,-1.7%
Cc1c(C(=O)Nc2cccc(Cl)c2)oc2ccc(S(=O)(=O)N3CCOCC3)cc12,/,/,/,-0.7,0,7.4%
O=C1OC(c2ccccc2)=N/C1=C\C=C\c1ccccc1[N+](=O)[O-],8%,7%,?,0.2,1,-2.1%
CN(c1ccccc1)S(=O)(=O)c1cccc(C(=O)NCCCN2CCCC2=O)c1,3%,-71%[inhibitor],/,0.1,-8,-2.0%
O=c1[nH]c2cc3c(cc2cc1CN(CCO)S(=O)(=O)c1ccccc1)OCCO3,1%,0%[15.4 µM],3.3,-0.4,-17,/
CC(C)(C)C1CCc2c(sc(NC(=O)c3ccncc3)c2C(=O)Nc2ccccc2Cl)C1 (configuration not stated),/,/,/,-0.2,7,-2.0%
O=C(COc1ccccc1[N+](=O)[O-])Nc1ccccc1N1CCCCC1,-11%,0%,/,3.3,-11,-1.5%
CS(=O)(=O)N(CC(=O)N1CCN(c2ccccc2)CC1)Cc1ccc(Cl)cc1,-18%,-8%,-6.8,1.0,-19,-1.9%
CCCCc1nn2c(=O)cc(CN(CC)c3ccccc3)nc2s1,/,/,/,1.3,-15,-2.5%
CCN(CC)S(=O)(=O)c1ccc(C(=O)NN(C)C2=NS(=O)(=O)c3ccccc32)cc1,7%,?,-0.2,-0.5,-4,/
CCc1cccc(C)c1NC(=O)N(C)C1CCCCC1,1%,-16%[15.4 µM],3.9,-0.2,7,/
CCc1ccc(Nc2ncnc3sc4c(c23)CCCC4)cc1,/,/,/,1.0,8,-2.1%
CCOc1ccc(C=NN2CCCCCC2)cc1OCC,-10%,-11%,/,-0.5,7,/
C=C1c2ccccc2O[C@H](C(=O)OCC)[C@@H]1C1CCCCC1,-15%,/,/,1.3,26,-0.7%
O=C(NCC(c1ccco1)N1CCOCC1)c1ccc(C(F)(F)F)cc1 (configuration not stated),5%,-61%[inhibitor],/,-0.8,9,-1.5%
Cc1cc(-c2ccc(S(=O)(=O)Nc3ccc(Cl)cc3C)cc2)on1,/,/,/,-0.3,-1,-1.2%
O=C(NCc1ccc(F)cc1)C(c1ccccc1)N(C(=O)c1csnn1)c1ccccc1 (configuration not stated),-18%,2%[15.4 µM],-15,1.0,-11,-2.7%
O=S(=O)(c1ccc(F)c(Cl)c1)N1CCN(C/C=C/c2ccccc2)CC1,-12%,-21%,/,1.6,-12,2.0%
S=c1[nH]nc(-c2cccs2)n1/N=C/c1c(Cl)cccc1Cl,23%,-17%,-3.7,2.3,-18,-2.3%
Cc1sc2ncnc(N3CCC(C(=O)Nc4cc(Cl)ccc4Cl)CC3)c2c1C,?,-20%,/,2.7,9,-4.7%
CCOC(CNC(=O)c1cccc([N+](=O)[O-])c1)OCC,3%,-3%,3.9,1.5,3,0.4%
CCN(CC)S(=O)(=O)c1ccc(N2CCCC2)c(NC(=O)Cc2ccccc2)c1,5%,-14%,0.8,1.0,5,0.1%
O=C(CNS(=O)(=O)c1ccc(Br)cc1)N1CCN(Cc2ccccc2)CC1,-1%,0%[15.4 µM],/,-0.6,41,-4.7%
O=C(CSc1ccc(Br)cc1)NC1CCS(=O)(=O)C1 (configuration not stated),7%,-93%[inhibitor],/,0.6,-8,-4.3%
Oc1cccc(NC(=S)Nc2cccnc2)c1,6%,6%[15.4 µM],5.9,-0.1,8,-4.6%
COc1ccc(-c2c(-c3ccsc3)oc(=O)c3cc(OC)c(OC)cc23)cn1,-9%,5%,/,-0.1,-4,-27%
CC(=O)N1Cc2cc([N+](=O)[O-])ccc2Oc2ccccc21,3%,-3%[15.4 µM],-4.0,0.9,-14,/
COc1ccc(NC(=O)Nc2ccc3c(c2)N(C)C(=O)CS3)cc1OC,-12%,4%,-0.6,0.2,4,1.7%
O=C(CSc1nnc(-c2ccncc2)o1)Nc1nncs1,1%,-28%[15.4 µM],/,-0.2,13,/
CCCC(=O)NC(c1cccs1)c1cc(Cl)c2cccnc2c1O (configuration not stated),-7%,-33%[inhibitor],-1.6,4.4,19,-2.8%
COc1ccc(CCCc2nnc(SCC(=O)Nc3ccc(F)cc3)o2)cc1C,/,/,/,0.3,-3,-0.3%
Cc1ccc(C)c(CN2C(=O)c3ccccc3S(=O)(=O)c3ccc(C(=O)NCc4ccccc4)cc32)c1,/,/,/,2.5,0,1.2%
O=C(Cc1cccc2ccccc12)Nc1ccc2oc(-c3ccccc3)nc2c1,4%,-17%,1.3,0.7,-13,20µM*
COc1ccc(-c2cc3c(=O)n(CC(=O)NCc4ccc(F)cc4)ncn3n2)cc1,17%,-1%,-2.6,-0.5,-8,-17%
Cc1ccc2c(CN3CCN(Cc4ccccc4Cl)CC3)cc(=O)oc2c1,/,/,/,0.6,-4,-0.2%
COc1cc(OC)cc(-c2n[nH]c(=S)n2-c2cc(OC)ccc2OC)c1,-9%,?,0.6,-0.5,-1,?
O=C(NCc1cccs1)C1CC(=O)N(c2ccc(Cl)cc2)C1 (configuration not stated),5%,-15%[15.4 µM],0.7,-1.7,4,1.5%
COc1ccc(NC(=O)NCc2ccc3c(c2)OCO3)cc1,-1%,-3%,3.8,-0.9,-6,/
COC(=O)C1=C(C)N(Cc2ccco2)C(=O)N[C@@H]1c1ccco1,-7%,23%,-0.1[11.7 µM],0.8,8,0.4%
CN(C(=O)c1cccc(NC(=O)c2ccco2)c1)c1ccccc1,10%,9%,0.3,0.8,-12,1.0%
C=CCOC(=O)C1=C[C@H](c2ccc(C(F)(F)F)cc2)[C@@H](CCCO)[C@H](OCC)O1,-5%,/,-2.1,-0.3,9,-0.1%
COc1ccc(Br)cc1CN(C)C(C)C(=O)Nc1cccc(C(C)=O)c1 (configuration not stated),?,17%,3.2,4.5,26,-2.1%

Further compounds
compound,gsp antag,gsp agonist,Menin MLL FP FL,TRPML1 agonist,TRPML1 blocker,ClpP mod
COc1ccc(NC(=O)CN2C(=O)COc3ccc(S(=O)(=O)N4CCCCC4)cc32)cc1Cl,/,/,/,2.2,-8,-1.3%
CCOC(=O)c1c(NC(=O)CCC(=O)N(CC)CC)sc2c1CC(C)(C)OC2,-11%,1%,4.0,/,/,-17%
O=C1CN(c2nc(-c3ccccc3)c3cc(Cl)ccc3n2)c2ccccc2N1,-7%,20%,9.4,17,28,-4.0%
COC(=O)c1ccccc1NC(=O)CSc1nnnn1CC(=O)O,-7%,4%[15.4 µM],6.1,-0.4,15,/
Cc1cc(C)c(NC(=O)CN(c2ccccc2)S(=O)(=O)N(C)C)c(C)c1,-5%,-5%,2.5,1.3&1.6,13&0,-1.2%&-1.9%
O=C(Nc1ccc(F)cc1)c1nsc(Cl)c1Cl,1%,-22%,-0.5,0.2,-3,?
N#C/C(=C/c1ccc(N2CCCCC2)cc1)c1cccc(F)c1,-2%,13%[15.4 µM],12,0.4,38,0.2%
CN(C)CCCN(C(=O)c1ccc(S(=O)(=O)N2CCCCC2)cc1)c1nc2cc3c(cc2s1)OCO3,-9%,6%[15.4 µM],-0.5,2.2,-1,-1.8%
COc1ccc(C(=O)N(Cc2ccco2)Cc2cc3cc(C)ccc3[nH]c2=O)cc1OC,-6%,?,/,0.4,0,-18%
Cc1ccc(CNC(=O)C2CCC(=O)N(C3CC3)C2)cc1 (configuration not stated),15%,-12%,/,1.5,-18,-0.4%
O=C(Oc1ccc2c(c1)OCO2)c1cccs1,11%,35%,1.9,-1.0,-50*,?
CC(=O)c1c(O)c2cccc3c2n(c1=O)CCC3,2%,10%,9.5,1.4,-5,-4.2%
O=[N+]([O-])c1cc(Cl)ccc1-c1nc(-c2ccccc2)no1,-7%,-19%,0.4,1.2,7,0.8%
CCOC(=O)C1=C(COC(=O)c2cc([N+](=O)[O-])ccc2Cl)NC(=O)NC1C (configuration not stated),/,-1%,/,-0.8,10,-0.1%
O=C1/C(=C/c2ccncc2)SC(=S)N1N1CCOCC1,1%,-4%[15.4 µM],-0.3,-0.5,11,-0.7%
COc1cc(NC(=O)c2cccnc2)c(Cl)cc1NC(=O)c1ccccc1,1%,5%[15.4 µM],2.4,-0.5,0,-14%
C[C@H](NCc1c[nH]c2ccccc12)c1ccccc1,16%,11%,0.4,0.1,3,2.3%
COc1ccc(C)cc1S(=O)(=O)n1cnc2ccccc21,14%,-39%[inhibitor],-0.8,3.8,42,2.3%
CCOC(=O)c1ccc(N2C(=O)CC(NNC(=O)c3ccc(Br)s3)C2=O)cc1 (configuration not stated),0%,1%[15.4 µM],3.9,-0.3,11,-4.2%
COc1ccc(NC(=O)NN(C(=O)c2ccccc2)C(C)(C)C)cc1,18%,10%,-1.0,1.3,-1,25µM*
Cc1ccc(C)c(S(=O)(=O)N2CCN(C(=O)Cn3[nH]c(=O)c4ccccc4c3=O)CC2)c1,-5%,7%[15.4 µM],/,2.0,-10,/
Cc1cc(C)cc(C(=O)Nc2cccnc2Cl)c1,9%,-5%,1.4,3.1,9,3.2%
COc1ccc(CNC(=O)c2ccc(-c3ccccc3)cc2)cc1,5%,8%,0.6,-0.7,26,0.5%
Cc1ccccc1N(CC(=O)NCCSCc1ccco1)S(C)(=O)=O,-10%,-53%[inhibitor],2.0,-0.5,79,1.7%
